GCN5L2 inh: inhibitors of human GCN5L2 histone acetyltransferase; Q92830; GCN5L2 HAT assay, ThioGlo1 CoA-SH fluorescence; Potency, µM (series often up to 58.9 µM), for the others: at the highest dose activity change, negative = inhibition, hits mostly inhibitors; actives 0.21% (n = 390,000); AID 504327; active means well fitted inhibition curve with a large enough effect
Target sequence (Q92830 whole entry, looked up): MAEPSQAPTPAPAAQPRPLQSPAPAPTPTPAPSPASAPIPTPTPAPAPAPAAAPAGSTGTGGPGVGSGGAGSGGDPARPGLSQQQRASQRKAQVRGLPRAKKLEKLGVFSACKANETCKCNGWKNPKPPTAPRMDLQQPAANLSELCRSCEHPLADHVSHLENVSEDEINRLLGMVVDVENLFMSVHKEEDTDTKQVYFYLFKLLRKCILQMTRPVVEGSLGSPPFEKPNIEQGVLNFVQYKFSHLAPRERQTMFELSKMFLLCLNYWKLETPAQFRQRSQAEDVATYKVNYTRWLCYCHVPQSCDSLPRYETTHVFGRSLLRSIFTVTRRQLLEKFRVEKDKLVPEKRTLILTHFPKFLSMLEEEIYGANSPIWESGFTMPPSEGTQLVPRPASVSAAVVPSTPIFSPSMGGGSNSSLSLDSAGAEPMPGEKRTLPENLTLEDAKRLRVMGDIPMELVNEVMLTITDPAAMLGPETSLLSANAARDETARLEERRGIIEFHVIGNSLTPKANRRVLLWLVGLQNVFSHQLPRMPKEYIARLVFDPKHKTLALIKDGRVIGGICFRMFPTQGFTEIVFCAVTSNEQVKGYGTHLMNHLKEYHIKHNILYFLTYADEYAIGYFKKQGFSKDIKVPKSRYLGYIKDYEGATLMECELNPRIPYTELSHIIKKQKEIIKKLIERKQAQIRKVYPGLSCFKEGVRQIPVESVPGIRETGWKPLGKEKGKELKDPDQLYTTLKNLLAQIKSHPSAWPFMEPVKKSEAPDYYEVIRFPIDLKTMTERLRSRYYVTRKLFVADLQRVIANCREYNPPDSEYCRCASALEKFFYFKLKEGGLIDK
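Fluorescence readout, Ex340nm/Em540nm: ThioGlo1 (50uM final) reacts with free CoA thiol released as 20nM GCN5L2 acetylates H3(1-25) peptide (75uM) using acetyl-CoA (70uM). Compound and enzyme sat 15 min beforehand; 20 min room-temperature reaction.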
Starred values were filed as active, the others as inactive; & = joins results of further samples; [ ] = dose if it differs, or a comment. On the % scale 0 is the no-effect control and ±100 the full control effect; potency means the concentration at half of the fitted maximal effect. An excerpt; most or all hits stand in other tables.

SMILES	GCN5L2 inh
COc1ccc(C(=O)Cn2c(=O)n3nc(CCn4nc(C)cc4C)nc3c3cc(OC)c(OC)cc32)cc1	1.8%
Nc1c(C(=O)CSc2nccn2-c2ccc(Cl)cc2)c(=O)[nH]c(=O)n1C1CC1	2.2%
CN(CC(=O)Nc1ccc(Cl)c(C(F)(F)F)c1)C(=O)COC(=O)C1CC2CCCC(C1)C2=O (centres undefined)	-0.7%
CC(C)(C)OC(=O)C[C@H]1C/C=C\C[C@@H](CC(=O)NCCO)C(=O)NCCOC1=O	4.3%
Cc1ccc(C)c(N2CCN(c3ccc4cc(S(=O)(=O)N5CCC(C)CC5)ccc4n3)CC2)c1	-4.7%
Cc1oc(-c2ccccc2Cl)nc1CN(Cc1ccccn1)C[C@@H]1CCC(=O)N1	-5.3%
Cc1ccc(/C=N/NC(=O)CSc2nc3nc(C)cc(C)n3n2)cc1	-6.2%
CCCCNC(=O)N1CCN(Cc2ccc(F)cc2)CC1	0.7%
COC(=O)c1c(NC(=O)CN2CCN(c3ncccn3)CC2)sc(C(N)=O)c1C	-10.9%
Cc1cccc(C)c1OCC(=O)N(Cc1ccccc1F)C1CCS(=O)(=O)C1 (centres undefined)	-9.9%
O=C(O)CCCCCNS(=O)(=O)c1cccc2c1C(=O)c1ccccc1C2=O	-2.6%
Cc1ccc(S(=O)(=O)Cc2ccc(C(=O)OCc3ccccc3)cc2)cc1	2.4%
O=C(c1ccccc1Cl)N1CCN(C(=O)C2CCCO2)CC1 (centres undefined)	2.1%
CSc1ccc(S(=O)(=O)NCC(=O)OCC(=O)N2CCC(C)CC2)cc1[N+](=O)[O-]	-2.3%
O=C(NC1CC1)c1cc(Cl)nc2ccccc12	-8.8%
CC1=Nc2cc(C(=O)NCc3ccco3)ccc2Sc2ccc(C)cc21	-6.3%
Cc1cccc(C(C)C)c1NC(=O)COC(=O)CNS(=O)(=O)c1ccccc1	1.6%
C/C(CCc1ccco1)=N\NC(=O)CNc1cccc2ccccc12	-8.8%
COc1nc(NCc2ccc(Cl)cc2)nc(OC)n1	-1.8%
Cc1ccc(O)c(C(CC(=O)NCc2cccnc2)c2ccccc2)c1 (centres undefined)	2.3%
O=C1C2ON(c3ccccc3)C(c3cccnc3)C2C(=O)N1Cc1ccccc1 (centres undefined)	1.7%
O=[N+]([O-])c1cc(-c2nc(-c3ccccc3)no2)ccc1N1CCOCC1	-2.6%
CCOC(=O)c1sc(=S)n(-c2ccc(Cl)cc2)c1C	-0.8%
CC1=Nc2cccc([N+](=O)[O-])c2NC(=O)C1	-0.6%
CCOc1ccc(CCNC(=O)C2CCN(S(=O)(=O)N3CC(C)CC(C)C3)CC2)cc1OCC (centres undefined)	-5.3%
SMILES	GCN5L2 inh
COc1ccc(NCc2nnc(SCC(=O)NNC(=O)c3ccc(C)cc3)n2C)cc1	-2.2%
COc1ccc(C(=O)Nc2ccccc2C(=O)NCc2ccco2)cc1OC	-3.4%
COc1ccccc1NC(=O)COc1cc(C)nc(C(C)C)n1	-3.7%
O=S1(=O)N=C(N(CCO)/N=C/C=C/c2ccccc2)c2ccccc21	-11.0%
Clc1ccc(-c2noc(/C=C/c3ccccc3)n2)cc1	2.4%
CC(C)(CNC(=O)c1cccs1)N1CCOCC1	2.9%
CCCCC(=O)N1C/C=C\C(c2ccc(OC)cc2)N(Cc2ccc(F)cc2)C(=O)[C@H]1Cc1ccccc1 (some centres undefined)	-1.4%
COc1ccccc1NC(=O)CSc1nc(C)c2c(c1C#N)CCCC2	13.2%
COc1ccc(Cc2nnc(SCC(=O)Nc3nc(C)cs3)o2)cc1	-1.3%
CCN(CC)c1ccc(NC(=O)CN(C)S(=O)(=O)c2cccc3nsnc23)c(C)c1	1.8%
O=C(CCN1C(=O)c2ccccc2C1=O)N(CCO)Cc1ccccc1	-1.3%
COc1ccc(/C=C/C(=O)OCC(=O)NC2CCCC(C)C2C)c(OC)c1 (centres undefined)	-1.7%
O=C(Cn1nnc(-c2ccccc2F)n1)Nc1ccc2c(c1)OCCO2	-0.5%
CCCC12CN(C(=O)c3ccco3)CC(CCC)(CN(C(=O)c3ccco3)C1)C2=O	-1.2%
Cn1cccc1-c1cc(C(=O)N/N=C/c2ccc(Cl)cc2)[nH]n1	-6.7%
Cc1cccc(N2CCN(S(=O)(=O)c3c(C)nc4scc(C)n4c3=O)CC2C)c1 (centres undefined)	-4.8%&-2.5%
O=C(Nc1cccc(OC(F)(F)F)c1)c1ccc(Br)o1	-20.7%
Cc1ccc(-c2cc(C(=O)Nc3ccc(S(=O)(=O)Nc4ncccn4)cc3)c3ccccc3n2)cc1	31.7%[activator]
Cc1cc(C)n(CCCNC(=O)CN(C)S(=O)(=O)c2ccc(Cl)cc2)n1	-4.3%
O=S(=O)(N/N=C\c1cn(-c2ccccc2)nc1-c1ccccc1)c1ccccc1	-9.1%
O=C(Nc1ccc2c(c1)CCC2)c1cc(S(=O)(=O)Nc2ccc(F)cc2)c(Cl)cc1Cl	-17.6%
Cc1onc(-c2ccccc2Cl)c1C(=O)NNC(=O)c1cccc(F)c1	-0.9%
Cc1cc(C)c(C(=O)COC(=O)CN2C(=O)NC3(CCCC3)C2=O)cc1C	-0.1%
COC(=O)C1=C(CSc2nc3ccccc3o2)NC(=O)NC1c1cc(C)ccc1C (centres undefined)	-12.1%
CC(=O)C1=C(Nc2ccccc2)CC(C)(O)C(C(C)=O)C1c1ccccc1 (centres undefined)	-22.8%
SMILES	GCN5L2 inh
COc1cccc(Cn2c(SCC(=O)N3CCN(c4ccc(F)cc4)CC3)nc3ccccc32)c1	-1.4%
Oc1ccccc1CNc1nc2ccccc2n1CCN1CCCCC1	-16.2%
COCCNc1c(-c2ccc(OC)c(OC)c2)nc2ccc(Cl)cn12	-2.7%
COc1ccc(CNC(=S)Nc2ccc(OC)cc2)cc1	4.0%
Cc1[nH]n(-c2ccccc2)c(=O)c1C(=O)c1ccccc1	-6.9%
Cc1nc(Cl)c(C(=O)NC(=O)Nc2cccc(C(F)(F)F)c2)c(C)c1[N+](=O)[O-]	-5.3%
CCN(Cc1ccccc1)C(=O)c1c(C)oc2ncn(C)c(=O)c12	0.4%
O=C(Cn1nc(C(=O)O)c2ccccc2c1=O)NCCC1=CCCCC1	1.3%
COc1cc(/C=C/C(=O)O)cc(S(=O)(=O)Nc2ccccc2Oc2ccccc2)c1OC	-0.4%
COc1ccc(C(=O)NC2CCc3ccccc32)cc1OC1CCN(C(C)C)CC1 (centres undefined)	-2.4%
CCCCNC(=S)N(CCN(C)C)Cc1cc2cc3c(cc2[nH]c1=O)OCCO3	-7.6%
CCCOc1ccc(C2/C(=C(\O)c3c(C)[nH]c(C(=O)OC)c3C)C(=O)C(=O)N2CCN(C)C)cc1 (centres undefined)	-10.4%
COc1ccc(OCCCC(=O)NCC(C)C)cc1	-6.5%
N#CCCN(Cc1cccnc1)C(=S)NC(=O)c1ccccc1	2.9%
CSc1nc(Oc2ccc(=O)n(C)n2)nc(N(C)C)n1	-8.0%
O=C(CN1C(=O)c2ccccc2S1(=O)=O)NCCSCc1ccco1	-2.5%
CCS(=O)(=O)N1CC(=O)N(c2cccc(C)c2C)C(C)(C(=O)NC2CCCCCC2)C1 (centres undefined)	-7.1%
CC1CN(S(=O)(=O)Cc2ccccc2)CC(C)O1 (centres undefined)	-1.4%
CC(=O)Nc1ccc(Nc2cc(N3CCOCC3)c3nonc3c2[N+](=O)[O-])cc1	-9.4%
COc1cccc(C(=O)NNC(=O)Cc2ccc(Cl)cc2)c1	-0.2%
Cc1ccc(S(=O)(=O)NNC(=O)c2c(O)c3ccccc3[nH]c2=O)cc1	-7.3%
N#CCCn1cc(C(N)=O)c(-c2cccs2)n1	-13.7%
CC(C)CC(N)c1cn([C@@H](CCC(=O)O)C(=O)N2CCNCC2)nn1 (some centres undefined)	-4.1%
COc1ccc(C2(O)CCN(Cc3nnnn3Cc3ccc(F)cc3)CC2)cc1	-2.7%
C=CCSC1=N/C(=C\c2ccc(C)o2)C(=O)S1	0.0%
SMILES	GCN5L2 inh
c1coc(-c2nnc3n2C2(CCCC2)Cc2ccccc2-3)c1	2.6%
CCOC(=O)CSc1nc2cc3c(cc2cc1C#N)OCO3	-4.6%
O=C(Nc1cccnc1)c1cc(-c2ccc(F)cc2)on1	-5.7%
CCP(=O)(CC)c1cccc(N)c1	-1.0%
COc1ccc(C(=O)NC(NC(=S)Nc2ccc(S(N)(=O)=O)cc2)C(Cl)(Cl)Cl)cc1 (centres undefined)	-2.9%
COc1cccc(CNC(=O)C2Cc3cc(S(=O)(=O)N4CCCCCC4)ccc3N2C(C)=O)c1 (centres undefined)	20.7%
CC(C)[C@H](NC(=O)c1ccccc1Cl)C(=O)OCC(=O)NC(=O)NCc1ccco1	-6.1%
Cc1cc(NC(=O)CSc2nnc3c(C)cc4ccccc4n23)no1	-0.4%
CCCCNc1c(N)n(CC(C)C)c(=O)[nH]c1=O	-6.9%
CN(C)c1ccc(-c2nnn(CC(=O)NCc3ccc4c(c3)OCO4)n2)cc1	-7.3%
COc1ccc(Cl)cc1NC(=O)C(C)N1Cc2ccccc2C1=O (centres undefined)	-1.8%
COc1ccccc1-n1c(SCC(=O)Nc2ccc3c(c2)OCO3)nc2c(c1=O)SCC2	-24.1%
CCC(C(=O)NCc1cccs1)n1nc(C)n2c(cc3occc32)c1=O (centres undefined)	-1.5%
COC(=O)c1c(NC(=O)CSc2nnc(-c3cccnc3)n2Cc2ccco2)sc(C)c1C	-5.6%
COc1ccc(-c2cc(=O)oc3cc4occ(C)c4cc23)cc1	-19.7%
C=CCNC(=S)N1CCN(c2ccc([N+](=O)[O-])cc2)CC1	0.7%
Cc1cc(-c2nnc(CCC(=O)NCC(C)c3ccccc3)o2)no1 (centres undefined)	-0.1%
O=C(NCc1cccs1)c1ccc2c(c1)ncn2C1CCCC1	-8.6%
COc1ccc(CCNC(=O)C2(C)CCC(=O)N2Cc2ccc3c(c2)OCO3)cc1OC (centres undefined)	1.1%
O=C(NCCN1C(=O)S/C(=C/c2ccccc2)C1=O)C1CC(=O)N(Cc2ccccc2)C1 (centres undefined)	-3.0%
O=C(Cc1ccccc1)NNC(=O)c1cccs1	-4.9%
Cn1c(N2C(=O)CC(Cc3ccccc3)C2=O)nc2ccccc21 (centres undefined)	-5.5%
CC1CCC2(CC1)NC(=O)N(CC(=O)NCCc1ccc(F)cc1)C2=O (centres undefined)	-0.5%
CC(C)C(=O)c1cn(CC(=O)O)c2ccccc12	1.4%
O=C(NCc1ccccc1)c1ccc(CS(=O)(=O)c2ccc(Br)cc2)o1	-5.3%
CCOc1nc(NCc2ccco2)nc(Nc2ccccc2F)n1	3.6%
COc1ccc(C(CNC(=O)c2cc3c(s2)CCC(C)C3)N2CCCC2)cc1 (centres undefined)	-3.1%

Grouped by structure: those above containing a furan ring, fused or not
SMILES	GCN5L2 inh
CC1=Nc2cc(C(=O)NCc3ccco3)ccc2Sc2ccc(C)cc21	-6.3%
C/C(CCc1ccco1)=N\NC(=O)CNc1cccc2ccccc12	-8.8%
COc1ccc(C(=O)Nc2ccccc2C(=O)NCc2ccco2)cc1OC	-3.4%
CCCC12CN(C(=O)c3ccco3)CC(CCC)(CN(C(=O)c3ccco3)C1)C2=O	-1.2%
O=C(Nc1cccc(OC(F)(F)F)c1)c1ccc(Br)o1	-20.7%
CCN(Cc1ccccc1)C(=O)c1c(C)oc2ncn(C)c(=O)c12	0.4%
O=C(CN1C(=O)c2ccccc2S1(=O)=O)NCCSCc1ccco1	-2.5%
C=CCSC1=N/C(=C\c2ccc(C)o2)C(=O)S1	0.0%
c1coc(-c2nnc3n2C2(CCCC2)Cc2ccccc2-3)c1	2.6%
CC(C)[C@H](NC(=O)c1ccccc1Cl)C(=O)OCC(=O)NC(=O)NCc1ccco1	-6.1%
CCC(C(=O)NCc1cccs1)n1nc(C)n2c(cc3occc32)c1=O (centres undefined)	-1.5%
COC(=O)c1c(NC(=O)CSc2nnc(-c3cccnc3)n2Cc2ccco2)sc(C)c1C	-5.6%
COc1ccc(-c2cc(=O)oc3cc4occ(C)c4cc23)cc1	-19.7%
O=C(NCc1ccccc1)c1ccc(CS(=O)(=O)c2ccc(Br)cc2)o1	-5.3%
CCOc1nc(NCc2ccco2)nc(Nc2ccccc2F)n1	3.6%

Quoted at random: 2 entries already listed, in no set order.
SMILES	GCN5L2 inh
Cc1ccc(/C=N/NC(=O)CSc2nc3nc(C)cc(C)n3n2)cc1	-6.2%
CC(C)CC(N)c1cn([C@@H](CCC(=O)O)C(=O)N2CCNCC2)nn1 (some centres undefined)	-4.1%

Structures listed so far containing a CF3 group:
SMILES	GCN5L2 inh
CN(CC(=O)Nc1ccc(Cl)c(C(F)(F)F)c1)C(=O)COC(=O)C1CC2CCCC(C1)C2=O (centres undefined)	-0.7%
O=C(Nc1cccc(OC(F)(F)F)c1)c1ccc(Br)o1	-20.7%
Cc1nc(Cl)c(C(=O)NC(=O)Nc2cccc(C(F)(F)F)c2)c(C)c1[N+](=O)[O-]	-5.3%

Screens from PubChem.
